CtBP-E1A blk = blocks the CtBP interaction with E1A; AID 651724; 340,000 compounds, 0.49% hits; AlphaScreen GST-E1A/His-CtBP binding, 1536-well; hits give low values; control for the full effect not named in the record; activity change, % (no concentration beside the values); in the data active means activity change below about -65%; inconclusive means about -30% to -65%; inactive means above about -30%; also: % is scaled to controls: 0 for no effect and ±100 for the full control effect
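In 5 uL wells, 23 nL compound meets equimolar GST-E1A and His-CtBP (5X stock 125 nM each) for 2 h, 37 °C. Beads (5X, 50 ug/mL) then 1 h, 37 °C, dark.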
gsp antag = gsp mutant antagonism | gsp-mutant cells, cAMP HTRF, 30 min; control for the full effect not named in the record | AID 624288 | Potency, µM (titrated, usually from 76.9 µM), inactives show at the highest dose activity change, negative = inhibition, actives largely listed as inhibitors | 340,000 compounds, 0.4% hits; active = falling curve of any shape with a large fitted effect; inconclusive = falling curve, mostly with a smaller effect; inactive = flat or rising curve; cell line not stated here;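 also: intracellular cAMP measured with PDE inhibitor Ro 20-1724 present during compound exposure; potency is read from the fitted curve at half-maximal effect; % is scaled to controls: 0 for no effect and ±100 for the full control effect; nearly all actives have a fitted effect of over 65% in size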
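G418-selected cells were plated in DMEM/10% FBS for 16-24 h at 37C, then treated with compounds plus the PDE inhibitor […] (300 uM solution added) for 30 min at 37C. Intracellular cAMP was measured by HTRF after 30 min lysis at room temperature.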
D2 PAM = human D2 receptor positive allosteric modulation | DiscoveRx D2 beta-arrestin cells, luminescence, 90 min; 100% = 57 uM dopamine signal | P14416 | 360,000 compounds, 0.23% hits | potentiation, % (no concentration beside the values); active = potentiation of 50% or more; inconclusive = 30% to 50%; inactive = 30% or less;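 also: compound concentration not given in the record; tested on top of an EC20 dose of dopamine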
Target sequence (P14416 whole entry, looked up): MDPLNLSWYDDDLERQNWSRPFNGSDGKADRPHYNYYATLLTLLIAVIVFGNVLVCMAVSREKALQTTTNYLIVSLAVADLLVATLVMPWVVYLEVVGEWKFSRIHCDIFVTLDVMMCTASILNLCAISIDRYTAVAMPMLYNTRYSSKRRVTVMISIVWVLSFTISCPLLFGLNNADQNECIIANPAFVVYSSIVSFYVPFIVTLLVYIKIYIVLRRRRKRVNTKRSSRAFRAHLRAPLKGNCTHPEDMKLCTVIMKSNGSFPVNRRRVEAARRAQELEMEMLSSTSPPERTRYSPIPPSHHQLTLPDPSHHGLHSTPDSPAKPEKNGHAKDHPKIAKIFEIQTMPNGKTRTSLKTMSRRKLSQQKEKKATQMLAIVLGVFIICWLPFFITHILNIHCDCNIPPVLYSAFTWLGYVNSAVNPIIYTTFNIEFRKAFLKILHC
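PathHunter beta-arrestin assay in DiscoveRx D2 cells. Compounds were added with an EC20 of dopamine (50 nM final) for 90 min at 37 deg C. Luminescence was read 1 h after detection reagent, with 57 uM dopamine as the EC100 control.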
D2 agonist = activates the human D2 dopamine receptor. P14416. DiscoveRx PathHunter D2 beta-arrestin, luminescence, 90 min; 100% = 57 uM dopamine signal. activation, % (test concentration not listed). 360,000 compounds, 0.084% hits; in the data active = activation above about 40%; inconclusive = about 15% to 40%; inactive = below about 15%; also: compound concentration not given in the record; the text of the record calls up to 30% inactive
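DiscoveRx PathHunter D2 beta-arrestin cells (2,100/well) attached overnight, then compound-stimulated 90 min at 37 C in HBSS/10 mM HEPES/0.1% Tween-20 buffer; beta-galactosidase complementation read by luminescence after 1 h at ambient temperature. Dopamine 57 uM final (EC100) as control.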
gsp ag = agonists of gsp mutant (McCune-Albright syndrome) | Potency, µM (titrated, usually from 76.9 µM), without a hit: top-dose activation (cAMP increase), hits mostly activators | AID 624287 | gsp mutant cells, cAMP HTRF, 30 min; control for the full effect not named in the record | 340,000 compounds, 0.13% hits; active = well fitted activation curve with a large enough effect; inconclusive = small, poorly fitted or top-dose-only effect, or another doubt; inactive = no such curve, though single readings can be large or run the other way; cell line not stated here;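 also: phosphodiesterase inhibitor Ro 20-1724 added with compounds to block cAMP breakdown; potency is read from the fitted curve at half-maximal effect; nearly all actives have a fitted effect of over 60% in size; about a fifth of the inactives were tested at one dose only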
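Cells in DMEM/10% FBS with G418 were pretreated with compounds in DMSO plus […] (300 uM stock) for 30 min at 37C. cAMP was measured by HTRF (cAMP-d2 plus anti-cAMP antibody-K) after 30 min at room temperature.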
Six1-Eya2 blk = blocks human Six1 binding to Eya2; activity change, % (test concentration not listed); 360,000 compounds, 0.56% hits; AlphaScreen GST-Six1/His-Eya2 binding, biochemical; hits give low values; control for the full effect not named in the record; Q15475+O00167; in the data active = activity change below about -65%; inconclusive = about -30% to -65%; inactive = above about -30%; also: % is scaled to controls: 0 for no effect and ±100 for the full control effect
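AlphaScreen with GST-Six1 and His-Eya2 (5X mix: 250 nM and 500 nM), glutathione donor and nickel acceptor beads; buffer 50 mM Tris pH 8.0, 300 mM NaCl, 1 mM TCEP; 1 h at 37 C in the dark.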
The depositor's hits bear a star; ? = inconclusive; nt = no result given; & = joins results of further samples; [ ] = another dose, or the depositor's remark.

structure	CtBP-E1A blk	gsp antag	D2 PAM	D2 agonist	gsp ag	Six1-Eya2 blk
COCCNC(=O)C1(C)CCN(C(=O)c2oc3ccccc3c2C)C1 (stereo not given)	-23.2	nt	-6.1	6.1	nt	6.1
CCCOc1ccc(C2/C(=C(/O)c3ccc(F)cc3)C(=O)C(=O)N2CCCN(C)C)cc1 (stereo not given)	-4.7	11.3%	-8.2	-3.4	0.2%	3.2
N#Cc1c(N)nc(SCc2ccccn2)c(C#N)c1-c1cccs1	?	19.9%	6.9	-0.4	0.8%	-26.0
CSc1ccccc1NC(=O)COc1ccccc1C	62.2	-7.1%	3.7	-4.0	-3.9%	53.7
Cc1ccc(S(=O)(=O)N2CCN(C(=O)COC(=O)c3nc(Cl)ccc3Cl)CC2)c(C)c1	nt	-8.6%	2.3	2.8	-7.2%	-2.6
O=C(Cc1cccs1)N1CCCC(c2nc3c(nnn3Cc3cccc(Cl)c3)c(=O)[nH]2)C1 (stereo not given)	-21.4	1.7%	-8.1	-3.0	5.0%	-16.3
Cc1ccc(S(=O)(=O)N2CCC(C(=O)N/N=C/c3ccncc3)CC2)cc1	nt	0.7%	-37.6	5.9	-34.1%[inhibitor]	-3.2
COc1ccc(N2CCN(S(=O)(=O)c3cnc[nH]3)CC2)cc1	-7.3	11.1%	2.6	0.0	-8.8%[15.4 µM]	8.8
CC(C)=CCc1c(O)c(CC=C(C)C)c2occ(-c3ccc(O)cc3)c(=O)c2c1O	-14.7	-25.0%	-24.5	-5.1	nt	-14.5
CN(C)S(=O)(=O)c1ccc(Cl)c(NC(=O)COc2ccccc2[N+](=O)[O-])c1	-12.5	-10.0%	-7.8	12.3	-28.6%	5.6
CCN(Cc1ccccc1)C(=O)C1CCN(C/C(C)=C/c2ccccc2)CC1	9.9	6.9%	-24.0	-3.4	-5.6%	1.4
O=C(CC1CCCC1)N1CCCC(Nc2cccc(F)c2)C1 (stereo not given)	-0.9	1.2%	-12.9	-3.2	3.4%[15.4 µM]	-7.9
CCCCOCCCNC(=O)N[C@H](C(=O)OC)C(C)C	1.5	18.3%	6.2	-0.2	-39.9%[inhibitor]	0.0
CCCNC(=O)Cn1cnc2sc(C(=O)N3CCN(Cc4ccc5c(c4)OCO5)CC3)c(C)c2c1=O	0.0	0.6%	-6.9	-2.5	?	-4.8
CC(C)C[C@H](NC(=O)c1nc[nH]c1C(=O)N1CCc2ccccc2C1)C(=O)OCc1ccccc1	0.0	-26.1%	0.6	2.6	nt	2.7
CC1(C)CC(=O)C=C(c2cccc3c2sc2ccccc23)C1	-9.1	-24.6%	-5.1	-5.2	-2.0%	7.2
O=C(COC(=O)c1cccnc1Cl)NC12CC3CC(CC(C3)C1)C2	3.6	-6.8%	-18.3	-1.9	?	1.0
O=C(c1cc2ccccc2o1)N1CCN=C1SCc1cccnc1	-1.0	-1.5%	-17.4	-1.6	14.1%	-1.7
CCCn1c(=O)cc(N)n(-c2ccc(OC(F)(F)F)cc2)c1=O	-5.1	6.2%	-7.5	-8.5	1.6%	-12.1
COc1ccc(CNc2ncccc2[N+](=O)[O-])cc1	-7.5	4.5%	1.9	-5.5	?	-13.6
CC(=O)Nc1c(Br)cc2c(c1Br)C(=O)c1ccccc1-2	-2.2	-26.8%	-0.9	-1.1	-11.2%	-4.1
Cc1ccc(-c2nc(-c3cccnc3)sc2CC(=O)Nc2ccc(C)c(Cl)c2)cc1	0.0	-13.9%	-38.7	-5.3	35.7%	13.6
CCOC(=O)COc1c(C=O)cc(Br)cc1OC	8.1	-4.5%	10.3	1.6	12.9%	8.6
COc1cccc(C(=O)NCCCNC(=O)c2cccc(OC)c2)c1	2.5	4.9%	-2.5	-2.8	-6.3%	-3.7
Cc1ccc(S(=O)(=O)N(C)Cc2ccc(C(=O)N/N=C3\CCCC(=O)C3)cc2)cc1	0.7	7.1%	-5.9	-1.3	-6.2%	0.6
CC(=O)Nc1ccc(-c2noc(-c3csc([C@@H]4C[C@H](O)[C@@H](CO)O4)n3)n2)cc1	1.0	nt	-14.6	-3.7	nt	1.7
CC(=O)Oc1cc2c(cc1OC(C)=O)C(=O)CCCC2	4.9	nt	6.8	10.1	-0.6%	-15.2
COc1ccc(/C=N/n2c(C)nc3sc(C)c(C)c3c2=O)cc1OC	8.6	0.7%	-6.4	1.6	17.3%	0.6
COc1ccc(CCNC(=O)C2CC(=O)N(c3ccc(C)cc3)C2)cc1OC (stereo not given)	0.0	0.4%	0.3	0.3	33.2%	8.7
CC(=O)Nc1ccc(S(=O)(=O)N(C)CC(=O)OCC(=O)N2CCCCCC2)cc1	-0.8	3.3%	-5.6	-0.2	9.2%	4.9
O=C(c1cncc(Br)c1)N1CCN(S(=O)(=O)c2ccccc2C(F)(F)F)CC1	13.4	-6.5%	-4.1	0.7	22.2%[15.4 µM]	4.6
O=C(c1c(F)cccc1F)N1CCN(c2ncccn2)CC1	-1.5	4.8%	-6.1	0.8	6.2%	2.1
CO/N=C(/CS(=O)(=O)c1ccc(Br)cc1)c1ccc(OC)cc1	7.5	-12.9%	1.6	0.7	0.0%	-0.7
CC(C)(C(=O)c1ccccc1)/[N+]([O-])=C/c1ccc(Br)cc1	-1.6	-7.5%	-5.4	-3.2	-49.4%[inhibitor]	1.8
O=C(NCc1ccco1)c1cc(NS(=O)(=O)c2cccc([N+](=O)[O-])c2)ccc1O	-22.7	nt	7.0	10.3	-7.5%[15.4 µM]	-27.9
CS(=O)(=O)N(Cc1ccccc1)c1ccc(C(=O)N2CCc3ccccc3C2)cc1	1.7	-13.5%	-15.4	1.7	17.4%	-0.3
CNc1nc(NCCOc2ccccc2Cl)c2sccc2n1	-13.1	nt	-14.7	-2.8	nt	-0.9
Cc1ccc(/C=C2\SC(=S)N(CCC(=O)NNC(=O)c3ccc(O)cc3)C2=O)cc1	-4.5	-9.6%	-11.5	3.2	33.3%	-2.6
COc1cc(CNn2nnnc2N)ccc1OCc1c(Cl)cccc1Cl	-7.1	-35.4%	6.5	-2.6	2.9%	-2.4
NC(=S)NC(c1ccccc1)c1ccncc1 (stereo not given)	7.4	-7.0%	-7.7	-9.5	-4.0%[15.4 µM]	11.4
CC(=O)Nc1cccc(OC(=O)c2ccoc2C)c1	0.3	-2.5%	-4.1	-3.4	-37.9%	0.3
Cc1ccc(-n2c(C)cc(/C=N/NC(=O)c3ccncc3)c2C)cc1	-10.0	7.6%	-7.5	-3.3	7.9%	-9.0
COc1ccc(N2CCN(CC(=O)Nc3ncc(C)s3)CC2)cc1	nt	3.4%	-12.8	3.0	-39.0%[inhibitor]	-8.4
Cc1cc(C)cc(C(=O)N2CCN(Cc3ccc4c(c3)OCO4)CC2)c1	-5.9	2.0%	-9.5	1.5	15.2%[15.4 µM]	-12.9
Cc1c(CN2CCC(CO)(CCOc3ccccc3)CC2)[nH]c2c(Cl)cccc12	-14.7	12.0%	-32.0	-3.9	?	-14.5
Nc1cc(=O)[nH]c(SCC(=O)Nc2ccc(Br)cc2)n1	3.1	-1.2%	-30.3	-7.2	-8.6%	-0.7
CCOc1ccc(NC(=O)COC(=O)CC2CCCCC2)cc1	-2.9	2.5%	-1.6	8.2	23.7%	2.5
O=C(Cc1ccc(F)cc1)N(c1ccc(F)cc1)C1C=CS(=O)(=O)C1 (stereo not given)	7.6	2.9%	5.0	3.7	-32.4%[inhibitor]	9.3
COc1ccc(N(CC(=O)NC2CCCCC2)S(=O)(=O)c2cccs2)cc1	2.1	9.7%	-3.5	7.5	-25.1%	6.9
COc1ccc(C(O)(CCc2ccccc2)CCN2CCCCC2)cc1 (stereo not given)	4.1	7.2%	-19.4	-3.7	?	4.7
COC(=O)c1ccc(C(=O)OC)c(NC(=O)CSCc2ccc(Br)cc2)c1	3.8	-12.9%	0.4	-7.8	-11.2%	9.2
COc1cccc(CNC(=O)C(=O)NCCC2CCCCN2S(=O)(=O)c2ccc(C)cc2)c1 (stereo not given)	-5.6	-3.0%	-13.6	-1.8	-4.3%[15.4 µM]	1.6
CN1CCN(C(=O)Nc2ccccc2CC[N+](=O)[O-])CC1	2.9	-2.2%	-6.3	-4.8	11.4%[15.4 µM]	4.4
O=c1c2ccccc2nnn1CSc1nnc(C2COc3ccccc3O2)n1-c1ccccc1 (stereo not given)	-6.2&-1.7	-7.5%	-5.2	-0.1	6.3%	-1.0
CCOC(=O)Nc1nc(-c2ccccc2)c(C(=O)c2ccc(Cl)cc2)s1	-6.1	14.6%	-0.8	-5.9	43.9%	-10.8
O=C(O)CCNC(=O)OCC1c2ccccc2-c2ccccc21	-1.6	2.7%	-4.7	3.0	-19.6%	2.1
COc1ccccc1/C=C/C=N/NC(=O)c1cccs1	2.5	-22.9%	-14.1	-2.0	-28.8%	7.5
COc1ccc(N2C(=O)C(F)(F)C2c2ccccc2F)cc1 (stereo not given)	nt	-15.7%	-1.0	-2.7	-19.8%	-0.2
CCOC(=O)CSc1c(-c2ccc(Cl)cc2)[nH]c2ccccc12	nt	-21.1%	-2.5	-1.0	-8.3%	-17.3
CC(C)=C1C(=O)NN(c2ccc(F)c(Cl)c2)C1=O	-13.5	3.3%	3.0	-2.7	-18.0%	-3.7

(listing goes on)
structure	CtBP-E1A blk	gsp antag	D2 PAM	D2 agonist	gsp ag	Six1-Eya2 blk
CC1CCCCN1C(=S)NC(=O)c1ccccc1 (stereo not given)	5.7	4.6%	-8.5	-5.5	-56.6%[inhibitor]	8.2
COc1cccc(-n2cnnc2SCC(=O)NC2CC2)c1	nt	6.8%	1.6	5.3	-17.4%	-0.9
CC(=O)c1cccc(NC(=O)CSCc2ccccc2)c1	-2.1	0.2%	-3.2	2.0	-5.4%	3.9
CC(C)C1C(C#N)=C(N)Oc2n[nH]c(-c3ccccc3)c21 (stereo not given)	0.0	-10.3%[15.4 µM]	-9.0	-0.6	-43.4%[inhibitor]	-9.7
CN(Cc1c(C(=O)N/N=C/c2cccc(Cl)c2)nnn1-c1nonc1N)c1ccccc1	7.1	-26.9%	-25.7	-0.2	17.9%	-4.4
COc1ccc2c(c1)OC[C@H]1[C@H]2N2C(=O)c3cc(F)ccc3NC(=O)[C@@]2(C)[C@H]1c1ccccc1	-4.3	-3.5%	-9.6	-2.3	nt	-8.9
Cc1ccc2nc(-c3cc(N)cc(N)c3)oc2c1	-12.1	-15.7%	-9.5	-3.9	-7.4%	-12.6
CN(Cc1ccccc1)C(=O)c1csc([C@@H]2C[C@H](O)[C@@H](CO)O2)n1	-7.4	nt	-5.7	-3.6	nt	14.1

High-throughput results from PubChem BioAssay.
